LASV entry inh: inhibitors of Lassa virus binding or cell entry; Potency, µM (series often up to 37.9 µM), inactives show at the top dose activity change, negative = inhibition, actives largely listed as inhibitors; actives 1.2% (n = 300,000); Lassa virus pseudotype entry inhibition, cell reporter; control for the full effect not named in the record; AID 540256; active means well fitted inhibition curve with a large enough effect; inconclusive means small, poorly fitted or top-dose-only effect, or effect the other way; inactive means flat fitted curve, though single readings scatter; tested in HEK293 cells; note: % is set by controls: 0 for no effect and ±100 for the full control effect; nearly all actives have a fitted effect of over 50% in size; luciferase read-out
SARS PLP yeast: SARS-CoV PLP inhibition in yeast; actives 0.19% (n = 330,000); Potency, µM (top dose mostly 32.9 µM), for the others: at the top dose activity, positive = growth rescue; AID 485353; S. cerevisiae expressing SARS-CoV PLpro, growth rescue; control for the full effect not named in the record; active means well fitted rising curve with a large enough effect; inconclusive means small, poorly fitted or top-dose-only effect; inactive means no such curve, though single readings can be large or run the other way; note: 0% is about no effect; nearly all actives have a fitted effect of over 55% in size; growth read by luminescence after 48 h
RE007 growth inh: less growth of the S. pombe RE007 Vpr strain; S. pombe RE007 Vpr strain, BacTiter-Glo ATP luminescence, 24 h; control for the full effect not named in the record; Potency, µM (series often up to 92.2 µM), inactives show at the highest dose activity change, negative = less growth; actives 0.21% (n = 360,000); AID 651644; active = well fitted falling curve with a large enough effect; inconclusive = small, poorly fitted or top-dose-only effect; inactive = no such curve, though single readings can be large or run the other way;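 note: % is set by controls: 0 for no effect and ±100 for the full control effect; nearly all actives have a fitted effect of over 50% in size; the assay follows cell death caused by Vpr and the record does not say whether a fall means rescue or toxicity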
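Fission yeast RE007 carrying one integrated HIV-1 vpr copy, seeded at OD 0.01 in PMG+AL medium with 23 nL pinned compound. Grown 24 h at 30 degrees; viability read by BacTiter-Glo luminescence after 5 min.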
Cruzain inh noDet: cruzain (T. cruzi) inhibition without detergent. AID 1476. purified cruzain, Z-FR-AMC fluorescence, no detergent. Potency, µM, without a hit: max response, negative = inhibition, hits mostly inhibitors. actives 2.3% (n = 200,000). P25779;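 note: plate controls were enzyme without inhibitor for no effect and buffer without enzyme for full effect; nearly all actives have a fitted effect of over 40% in size; top concentration of the series not given in the record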
Target sequence (P25779 123-467 limits assumed): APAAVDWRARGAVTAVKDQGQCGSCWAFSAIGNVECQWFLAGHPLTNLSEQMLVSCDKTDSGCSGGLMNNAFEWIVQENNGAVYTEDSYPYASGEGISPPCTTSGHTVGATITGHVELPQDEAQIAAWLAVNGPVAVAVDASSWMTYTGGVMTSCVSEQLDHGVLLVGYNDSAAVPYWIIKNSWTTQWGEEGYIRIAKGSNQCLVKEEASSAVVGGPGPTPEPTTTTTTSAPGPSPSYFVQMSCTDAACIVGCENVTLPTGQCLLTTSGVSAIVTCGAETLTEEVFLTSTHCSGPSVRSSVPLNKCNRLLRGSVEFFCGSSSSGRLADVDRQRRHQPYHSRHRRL
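Purified cruzain at 1.5 nM, pre-incubated 15 min with compound at room temperature in 100 mM sodium acetate pH 5.5, 5 mM DTT, 0.00005% Triton X-100. Reaction started with 2 uM Z-FR-AMC; AMC fluorescence increase over 60 s gives rate.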
NS1 inh: blocks influenza NS1 protein function. actives 0.4% (n = 270,000). S. cerevisiae slowed by influenza A NS1, growth recovery by OD600. Potency, µM (doses to about 46.1 µM), for inactives: top-dose activity, positive = more growth. AID 2326; active means well fitted rising curve with a large enough effect; inconclusive means small, poorly fitted or top-dose-only effect; inactive means no such curve, though single readings can be large or run the other way; note: nearly all actives have a fitted effect of over 50% in size
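Recovery from NS1-induced slow growth read by OD600 in budding yeast switched to galactose assay medium (pH 6.0, -URA) at 1:100 dilution. Compound 23 nl per well; the matching strain lacking NS1 serves as control.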
StopGo reporter: lowers the luciferase signal of an FMDV 2A StopGo reporter. AID 1159524. Potency, µM (series often up to 57.9 µM), without a hit: at the highest dose signal change, negative = less light. human cells with a luciferase reporter of 2A StopGo recoding; control for the full effect not named in the record. actives 1.2% (n = 410,000); active = well fitted falling curve with a large enough effect; inconclusive = small, poorly fitted or top-dose-only effect; inactive = no such curve, though single readings can be large or run the other way; tested in HEK293T cells; note: % is set by controls: 0 for no effect and ±100 for the full control effect; nearly all actives have a fitted effect of over 45% in size; luciferase light after 4 h
Cruzain Triton: blocks cruzain activity in presence of Triton detergent; purified cruzain, Z-FR-AMC fluorescence, 0.01% Triton; Potency, µM, inactives show max response, negative = inhibition, usual class: inhibitors; actives 0.43% (n = 200,000);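 note: plate controls were neutral wells for no effect and buffer without enzyme for full effect; nearly all actives have a fitted effect of over 40% in size; top concentration of the series not given in the record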
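Cysteine protease activity tested under reducing, mildly acidic conditions (100 mM sodium acetate pH 5.5, 5 mM DTT) plus 0.01% Triton X-100. Cruzain 1.5 nM; substrate Z-FR-AMC 2 uM; 15 min compound preincubation at room temperature.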
MARV entry inh: Marburg virus entry inhibition. Marburg virus pseudotyped entry inhibition, cell reporter; control for the full effect not named in the record; about a third of the inactives were read at about 46 µM. Potency, µM (titrated, usually from 37.8 µM), for the others: top-dose activity change, negative = inhibition, actives largely listed as inhibitors. actives 1.8% (n = 300,000). AID 540276; active = well fitted inhibition curve with a large enough effect; inconclusive = small, poorly fitted or top-dose-only effect, or effect the other way; inactive = flat fitted curve, though single readings scatter; tested in HEK293 cells; about a fifth of its hits are not listed in these tables; note: % is set by controls: 0 for no effect and ±100 for the full control effect; luciferase read-out
Starred values were filed as active, the others as inactive; ? = inconclusive; / = not tested or not shown; & = joins results of further samples; [ ] = dose if it differs, or a comment. Unless noted, calls come from the whole dose curve; as a rule, active = well fitted curve in the direction sought with a large enough effect; inconclusive = small, poorly fitted or top-dose-only effect, or another doubt; inactive = no such curve, though single readings can be large; an effect the other way counts as inactive or inconclusive. Potency is the fitted concentration of half-maximal effect.

SMILES	LASV entry inh	SARS PLP yeast	RE007 growth inh	Cruzain inh noDet	NS1 inh	StopGo reporter	Cruzain Triton	MARV entry inh
CCCCNC(=O)c1ccc2c(c1)N(Cc1ccc(F)cc1)C(=O)c1ccccc1S2=O (configuration not stated)	-4%[46.1 µM]	/	/	-4%	/	-11%	-0.3%	-10%[46.1 µM]
CC(=O)NC(CC(=O)O)C(=O)O (configuration not stated)	/	/	10%	6%	/	-5%&-8%	5.7%	/
COc1ccc(NS(=O)(=O)c2cccc(NC(=O)c3ccc(Cl)nc3)c2)cc1	5µM*	0%	13%	/	8%	32µM*	/	?
COc1ccc(S(=O)(=O)N2CCOCC2)cc1NC(=O)[C@@H]1CCCN1C(=O)c1cccs1	10%	3%	-5%	/	/	20%	/	?
C=CCSc1nsc(NC(=O)Nc2ccc(F)cc2)n1	?	-23%	5%	/	-127%	-28%	/	?
COc1ccccc1CNC(=O)COC(=O)c1ccc(C)c(S(=O)(=O)N2CCOCC2)c1	-2%	0%	10%	/	/	-10%	/	5%[46.1 µM]
Cc1ccc(NC(=O)CSc2ncc3c(n2)-c2ccccc2N(Cc2cccc(F)c2)S3(=O)=O)cc1F	21%[46.1 µM]	/	/	-21%	/	-19%	1.1%	/
CN(N=Nc1cccc([N+](=O)[O-])c1)c1cccc([N+](=O)[O-])c1	-1%	-4%	3%	/	/	45%[activator]	/	15%
Cc1ccc(CN2CCCC(C(=O)N3CCCC3)C2)cc1 (configuration not stated)	?	-2%	-9%	/	-3%	0%	/	?
Cn1ncc(Cl)c1C(=O)Nc1nc2ccc(Cl)cc2s1	?	-7%	-24%	3%	-8%	-23%	-5.2%	-42%
COc1ccc(NC(=O)CSc2nc3ccccc3n2CC(=O)N(C)c2ccc(F)cc2)cc1	-27%[46.1 µM]	/	/	15%	/	12%	-1.0%	/
CN1CCN(S(=O)(=O)c2cccc(C(=O)Oc3ccc(Br)cc3F)c2)CC1	/	-5%	-9%	/	-7%	-19%	/	/
Cc1ccc(S(=O)(=O)N2CCCCC2)cc1NC(=O)C1CCCO1 (configuration not stated)	9%	1%	12%	/	-2%	14%	/	3%[14.2 µM]
CC(=O)NC1(C(F)(F)F)C(=O)Nc2c1c(=O)[nH]c(=O)n2CC(C)C (configuration not stated)	/	0%	-1%	/	2%	-1%	/	/
CC1(C)CC(=O)C(CS(=O)(=O)c2ccccc2)=C(O)C1	/	3%	7%	/	3%	7%	/	/
COc1cc2c(cc1OC)CN(Cc1cc(OC)c3c(c1)OCO3)CC2	32%[46.1 µM]	0%	2%	/	5%	-2%	/	-26%[46.1 µM]
Cc1ccccc1-n1nc(C)c2c1NC(=O)CSC2c1ccc(Cl)cc1 (configuration not stated)	-7%[46.1 µM]	/	/	-1%	/	-24%	-4.8%	?
CCOC(=O)c1nnn(-c2nonc2N)c1CSc1ccc(C)cc1	6%	-26%	17%	-2%	-92%	-18%	-8.0%	-10%
c1cncc(CNc2c3c(nc4nnnn24)CCCC3)c1	-18%	0%	-3%	-9%	-2%	9%	3.8%	25%
CCOC(=O)c1c(C)[nH]c(C)c1S(=O)(=O)N1CCCC(C(=O)Nc2ncccc2C)C1 (configuration not stated)	15%[46.1 µM]	/	/	0%	/	-1%	0.7%	/
COc1ccc(C(=O)CSc2nc(N)nc(SC)c2C#N)cc1	-3%	-7%	11%	?	-10%	-20%	1.7%	-10%
CCN(CC)C(=O)C1CCCN(C(=S)Nc2cccc3ccccc23)C1 (configuration not stated)	-10%	-6%	-11%	6%	6%	-14%	-3.3%	-30%
Cc1nc2ccccc2c(=O)n1/N=C/c1ccccn1	26%	-3%	-4%	7%	-58%	/	1.1%	18%
Nc1cc(=O)[nH]c(SCC(=O)N2CCCCC2)n1	0%	-1%	22%	/	1%	-4%	/	16%[46.1 µM]
COc1ccc(C2CC(c3ccccc3)=NN2S(=O)(=O)c2ccccc2)cc1 (configuration not stated)	/	0%	2%	/	-39%	-3%	/	/
COc1ccc(-n2c(O)c(/C=N/NS(=O)(=O)c3cccc([N+](=O)[O-])c3)c3ccccc3c2=O)cc1OC	-3%[46.1 µM]	0%	3%	/	16%	-7%	/	11%[46.1 µM]
CN(C)CCCOC(=O)c1ccc(Cl)cc1Cl	10%	/	-13%	-2%	5%	-4%	0.3%	12%&12%
O=C(Nc1nc2c(s1)CCc1ccccc1-2)c1cccs1	-17%	-5%	2%	-1%	-3%	?	-5.4%	-14%&-14%
O=C(/C=C/c1ccc(F)cc1)c1cc(Br)ccc1O	?	0%	-24%	/	0%	-19%	/	5%[46.1 µM]
O=C(c1ccco1)N1C(=O)c2cccc3c(S(=O)(=O)N4CCCC4)ccc1c23	12%	-5%	-1%	17%	-14%	?	-3.9%	0%

An excerpt from above in order of count of non-hydrogen atoms, lowest first.
SMILES	LASV entry inh	SARS PLP yeast	RE007 growth inh	Cruzain inh noDet	NS1 inh	StopGo reporter	Cruzain Triton	MARV entry inh
CN(C)CCCOC(=O)c1ccc(Cl)cc1Cl	10%	/	-13%	-2%	5%	-4%	0.3%	12%&12%
Nc1cc(=O)[nH]c(SCC(=O)N2CCCCC2)n1	0%	-1%	22%	/	1%	-4%	/	16%[46.1 µM]
O=C(/C=C/c1ccc(F)cc1)c1cc(Br)ccc1O	?	0%	-24%	/	0%	-19%	/	5%[46.1 µM]
COc1ccc(C2CC(c3ccccc3)=NN2S(=O)(=O)c2ccccc2)cc1 (configuration not stated)	/	0%	2%	/	-39%	-3%	/	/

Remaining list, next part
SMILES	LASV entry inh	SARS PLP yeast	RE007 growth inh	Cruzain inh noDet	NS1 inh	StopGo reporter	Cruzain Triton	MARV entry inh
CCOCCCNC(=O)C1c2cc(OC)c(OC)cc2C(=O)N2CCCCC12 (configuration not stated)	-10%	10%	-4%	9%	-2%	-4%	-0.1%	-10%
Cc1ccc(-n2c(SCC(=O)N3CCOCC3)nc(O)c(Cc3ccccc3)c2=O)cc1	8%[46.1 µM]	3%	12%	/	22%	-16%	/	18%[46.1 µM]
COc1ccccc1C(CNC(=O)COc1cc(C)ccc1Cl)N1CCCC1 (configuration not stated)	?	2%	-13%	/	/	-15%	/	?
Cc1ccc(NC(=O)CSCC(=O)NC2=NCCS2)cc1	-6%	-2%	0%	/	/	0%	/	-13%
Cn1c(=O)c2c(nc(Br)n2Cc2ccccc2Cl)n(C)c1=O	-12%	-17%	4%	-10%	1%	?	-2.0%	?
COc1cccc(NC(=S)NCc2ccccn2)c1	?	15%	-4%	13%	?	60%[activator]	-2.9%	?
COc1ccccc1N1CCN(C(=O)c2cccc(S(=O)(=O)N3c4ccccc4CC3C)c2)CC1 (configuration not stated)	?	/	-5%	/	/	-26%	/	?
COc1ccc(C)cc1NC(=O)C1CCN(S(=O)(=O)Cc2ccccc2)CC1	-7%[46.1 µM]	/	/	-5%	/	-8%	-4.9%	1%[46.1 µM]
COc1ccc(S(=O)(=O)NC2CCCCC2)c(C)c1C	13%	-20%	12%	9%	-50%	32%[activator]	6.3%	?
O=C(NCCc1c[nH]c2ccccc12)c1c(Cl)nc2sccn12	-3%	7%	16%	?	7%	24%	2.9%	4%
COc1ccc(N2C(C)=CS/C2=C(/C#N)c2nnc(N3CCOCC3)n2-c2ccccc2)cc1	-14%	-9%	-3%	1%	0%	/	0.7%	-18%
CCn1cc(C(=O)NCCc2ccc(OC)cc2)c(=O)c2ccc(C)nc21	0%	-18%	-8%	/	12%	6%	/	4%[46.1 µM]
CC(C(=O)N(C)C1CCS(=O)(=O)C1)N1C(=O)/C(=C/c2ccco2)SC1=S (configuration not stated)	/	9%	-12%	/	19%	-12%	/	/
CN(C)/C=N/n1cnc2ccccc2c1=O	26%[46.1 µM]	5%	16%	/	2%	-8%	/	?
O=C(Nc1ccc(S(=O)(=O)N2CCCCC2)cc1)c1ccc(CN2CCOCC2)cc1	?	-11%	-4%	2%	-12%	/	0.0%	8.2µM*

Three of these compounds in another layout:
O=C(Nc1ccc(S(=O)(=O)N2CCCCC2)cc1)c1ccc(CN2CCOCC2)cc1
  LASV entry inh: ? | SARS PLP yeast: -11% | RE007 growth inh: -4% | Cruzain inh noDet: 2% | NS1 inh: -12% | StopGo reporter: / | Cruzain Triton: 0.0% | MARV entry inh: 8.2µM*
CN(C)/C=N/n1cnc2ccccc2c1=O
  LASV entry inh: 26%[46.1 µM] | SARS PLP yeast: 5% | RE007 growth inh: 16% | Cruzain inh noDet: / | NS1 inh: 2% | StopGo reporter: -8% | Cruzain Triton: / | MARV entry inh: ?
Cc1ccc(NC(=O)CSCC(=O)NC2=NCCS2)cc1
  LASV entry inh: -6% | SARS PLP yeast: -2% | RE007 growth inh: 0% | Cruzain inh noDet: / | NS1 inh: / | StopGo reporter: 0% | Cruzain Triton: / | MARV entry inh: -13%

(more compounds)
SMILES	LASV entry inh	SARS PLP yeast	RE007 growth inh	Cruzain inh noDet	NS1 inh	StopGo reporter	Cruzain Triton	MARV entry inh
CCn1c2ccccc2c2cc(NC(=O)COC(=O)c3ccc(NC(=O)CC#N)cc3)ccc21	?	-1%	2%	/	/	11%	/	0%
O=C(NCc1cccc(Cl)c1)c1cnn2c1NC(c1ccco1)CC2C(F)(F)F (configuration not stated)	-20%	-6%	-19%	-5%	-3%	?	-4.0%	?
O=C(CSCCc1ccccn1)Nc1ccccn1	16%	0%	12%	3%	1%	0%	-1.5%	-5%
COc1cc(OC)c(NS(=O)(=O)c2c(C(=O)N3CCCCC3)c(C)n(C)c2C)cc1Cl	/	-3%	-4%	/	-5%	17%	/	/
CC1=C(C)CC2C(=O)N(c3cccc4ccccc34)C(=O)C2C1 (configuration not stated)	/	-28%	?	3%	-121%	-25%	-5.2%	/
Cc1cc(C)c2c(C)nn(C3CCCCC3)c2n1	5%	0%	-13%	0%	-30%	-5%	4.9%	2%
Cc1cc(C)n(CCCNC(=O)CN(C)S(=O)(=O)c2ccc(Cl)cc2)n1	?	-8%	1%	/	/	-11%	/	-20%

Source: PubChem BioAssay (National Center for Advancing Translational Sciences (NCATS))
